# Env fusion inh: inhibitors of HIV-1 Env-driven cell-cell fusion, primary screen, HeLa-JRFL effector, CEM21 target cells, luciferase. inhibition, % at 12.3 µM. 1.1% of 360,000 active;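 active = mean replicate inhibition score of at least 50 and every replicate individually at or above 50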;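 also: 0% = plate neutral controls and 100% = maraviroc near 300 nM; one replicate is shown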
# UUG fidelity: modulators of yeast start codon fidelity, primary screen, whole organism, S. cerevisiae, single point, plate reader; S. cerevisiae UUG-firefly luciferase reporter, luminescence/redox ratio; activity score, % at 18.7 µM; AID 602363, 2012; 0.13% of 350,000 active;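 active = replicate mean at a twofold rise or more, about +100% in these data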;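 also: firefly luciferase made from a UUG start codon reports start codon fidelity; reporter light over untreated wells divided by growth signal over untreated wells; some hits fall short of that in this replicate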
# * hit, by the source's call; [ ] = another dose, or the depositor's remark.
(1) Cc1noc(C)c1NC(=O)N(C)C[C@H]1Oc2ccc(NC(=O)CCC(F)(F)F)cc2CC(=O)N([C@H](C)CO)C[C@H]1C
(2) C[C@@H]1CN([C@@H](C)CO)C(=O)c2cc(Br)cnc2O[C@H]1CN(C)C(=O)c1ccc(F)cc1
(3) O=C(CN1CCOCC1)NCC[C@@H]1CC[C@H](NC(=O)c2ccccc2F)[C@@H](CO)O1
(4) COc1ccccc1NC(=O)N[C@H]1CC[C@@H](CCNS(=O)(=O)c2ccc(F)cc2)O[C@@H]1CO
(5) C[C@H](CO)N1C[C@H](C)[C@H](CN(C)C(=O)C2CC2)Oc2ncc(Br)cc2C1=O
(6) C[C@@H]1CN([C@H](C)CO)C(=O)Cc2cc(NC(=O)c3ccncc3)ccc2O[C@@H]1CN(C)S(=O)(=O)c1cccs1
(7) C[C@@H]1CN([C@@H](C)CO)C(=O)c2cc(NS(=O)(=O)c3ccc(F)cc3)ccc2O[C@@H]1CN(C)Cc1ccc(C(=O)Nc2ccccc2N)cc1
(8) C[C@H]1CN([C@@H](C)CO)C(=O)Cc2cc(NC(=O)Cc3cn(C)c4ccccc34)ccc2O[C@@H]1CN(C)Cc1ccc(C(=O)O)cc1

screen / no.	1	2	3	4	5	6	7	8
Env fusion inh	5[16.7 µM]	-19[16.7 µM]	7[16.7 µM]	-5[16.7 µM]	-6[16.7 µM]	3[16.7 µM]	-24[16.7 µM]	12[16.7 µM]
UUG fidelity	11	13	1	20	-8	-12	-3	-12

(9) O=C(C[C@@H]1C[C@H]2c3cc(NS(=O)(=O)c4ccccc4)ccc3O[C@H]2[C@@H](CO)O1)NC1CCCCC1
(10) COc1ccc(S(=O)(=O)N(C)C[C@H]2Oc3ccc(NS(C)(=O)=O)cc3CC(=O)N([C@H](C)CO)C[C@@H]2C)cc1
(11) C[C@@H]1CN([C@@H](C)CO)C(=O)c2cccc(NC(=O)C3CC3)c2O[C@H]1CN(C)CC1CCCCC1
(12) O=C(NCC[C@@H]1CC[C@@H](NC(=O)Nc2cc(F)ccc2F)[C@@H](CO)O1)Nc1ccc(F)cc1
(13) C[C@H]1CN([C@@H](C)CO)C(=O)c2cc(NC(=O)c3ccncc3)ccc2O[C@H]1CN(C)Cc1ccc(Oc2ccccc2)cc1
(14) C[C@H]1CN([C@@H](C)CO)C(=O)c2cc(NC(=O)C3CCCCC3)ccc2O[C@H]1CN(C)S(=O)(=O)c1ccc(Cl)cc1
(15) C[C@H]1CN([C@@H](C)CO)C(=O)c2cc(N(C)C)ccc2O[C@@H]1CN(C)S(C)(=O)=O
(16) C[C@@H]1CN([C@@H](C)CO)C(=O)c2cc(-c3cncnc3)cnc2O[C@@H]1CN(C)C(=O)c1cccc(F)c1

screen / no.	9	10	11	12	13	14	15	16
Env fusion inh	10[16.7 µM]	-28[16.7 µM]	47[16.7 µM]	19[16.7 µM]	3[16.7 µM]	-18[16.7 µM]	10[16.7 µM]	-17[16.7 µM]
UUG fidelity	13	9	-7	3	8	2	4	-3

(17) Cc1noc(C)c1NC(=O)NCC[C@@H]1CC[C@H](NC(=O)Cc2cccnc2)[C@H](CO)O1
(18) CCNC(=O)C[C@@H]1CC[C@H]2[C@H](COc3ccc(NC(=O)NC(C)C)cc3C(=O)N2C)O1
(19) C[C@@H]1CCCCO[C@H](CN(C)Cc2ccc3c(c2)OCO3)[C@H](C)CN([C@@H](C)CO)C(=O)c2cc(NC(=O)CCCN(C)C)ccc2O1
(20) C[C@H](CO)N1C[C@H](C)[C@H](CN(C)Cc2ccc(C(=O)O)cc2)Oc2ncc(-c3ccccc3)cc2C1=O
(21) Cc1noc(C)c1S(=O)(=O)Nc1ccc2c(c1)C(=O)N([C@@H](C)CO)C[C@@H](C)[C@H](CN(C)C(=O)NC(C)C)OCCCC[C@H](C)O2
(22) C[C@H]1CN([C@@H](C)CO)C(=O)c2cccc(NC(=O)Nc3ccccc3)c2O[C@@H]1CN(C)Cc1ccc(Oc2ccccc2)cc1
(23) CN(C)Cc1cn(CC[C@H]2CC[C@@H](N)[C@H](CO)O2)nn1
(24) C[C@H](CO)N1C[C@H](C)[C@@H](CN(C)C(=O)C2CCCCC2)Oc2ncc(-c3ccccc3F)cc2C1=O

screen / no.	17	18	19	20	21	22	23	24
Env fusion inh	4[16.7 µM]	7[16.7 µM]	14[16.7 µM]	-1[16.7 µM]	8[16.7 µM]	-8[16.7 µM]	7[16.7 µM]	31[16.7 µM]
UUG fidelity	-9	-5	3	5	-15	-3	-9	-5

(25) Cc1noc(C)c1NC(=O)Nc1ccc2c(c1)C(=O)N([C@H](C)CO)C[C@H](C)[C@@H](CN(C)S(=O)(=O)c1cccs1)OCCCC[C@H](C)O2
(26) O=C(Nc1ccc(C(F)(F)F)cc1)N[C@@H]1CC[C@H](CC(=O)N2CCCCC2)O[C@H]1CO
(27) C[C@@H]1CN([C@@H](C)CO)C(=O)Cc2cc(NC(=O)Nc3ccc(C(F)(F)F)cc3)ccc2O[C@H]1CN(C)CC1CC1
(28) COc1ccc(NC(=O)N(C)C[C@@H]2OCCCC[C@H](C)Oc3ccc(NS(=O)(=O)c4ccc(Cl)cc4)cc3C(=O)N([C@H](C)CO)C[C@@H]2C)cc1
(29) COc1ccc(S(=O)(=O)N(C)C[C@@H]2OCCCC[C@@H](C)Oc3ccc(NC(=O)NC4CCCCC4)cc3C(=O)N([C@H](C)CO)C[C@@H]2C)cc1
(30) Cc1noc(C)c1S(=O)(=O)N(C)C[C@H]1OCCCC[C@H](C)Oc2ccc(NC(=O)C3CCCCC3)cc2C(=O)N([C@H](C)CO)C[C@@H]1C
(31) COCC(=O)Nc1ccc2c(c1)[C@H]1C[C@H](CC(=O)NC3CCCC3)O[C@H](CO)[C@H]1O2
(32) O=C(NCC[C@H]1CC[C@H](NC(=O)Nc2cc(F)ccc2F)[C@H](CO)O1)Nc1ccc(F)cc1

screen / no.	25	26	27	28	29	30	31	32
Env fusion inh	7[16.7 µM]	-18[16.7 µM]	1[16.7 µM]	-8[16.7 µM]	13[16.7 µM]	-27[16.7 µM]	-9[16.7 µM]	10[16.7 µM]
UUG fidelity	10	-9	3	-5	-10	1	-9	-3

(33) CO[C@H]1CN(C)C(=O)c2cc(NC(C)=O)ccc2OC[C@@H](C)N(C(=O)c2ccccc2)C[C@@H]1C
(34) CC(C)NC(=O)N[C@H]1CC[C@@H](CC(=O)NCCN2CCCC2)O[C@@H]1CO
(35) C[C@@H]1CN([C@H](C)CO)S(=O)(=O)c2ccc(C#Cc3ccccc3F)cc2O[C@H]1CN(C)C
(36) C[C@H](CO)N1C[C@H](C)[C@H](CN(C)C(=O)Nc2ccc(F)cc2)Oc2ccc(NC(=O)Nc3ccc4c(c3)OCO4)cc2CC1=O
(37) COc1ccccc1-c1ccc2c(c1)O[C@H](CN(C)C)[C@@H](C)CN([C@H](C)CO)S2(=O)=O
(38) COCC(=O)Nc1ccc2c(c1)[C@H]1C[C@H](CC(=O)N(C)C)O[C@@H](CO)[C@H]1O2
(39) C[C@@H]1CN([C@H](C)CO)C(=O)c2cc(C#CCN(C)C)cnc2O[C@@H]1CN(C)C(=O)Nc1cccc(F)c1
(40) CN(C)Cc1cn(CC[C@H]2CC[C@H](NC(=O)Nc3ccc4c(c3)OCO4)[C@H](CO)O2)nn1

screen / no.	33	34	35	36	37	38	39	40
Env fusion inh	-10[16.7 µM]	1[16.7 µM]	16[16.7 µM]	7[16.7 µM]	9[16.7 µM]	2[16.7 µM]	6[16.7 µM]	-19[16.7 µM]
UUG fidelity	21	-6	-5	16	-12	-1	9	-6

# From compound 39 to 40, copied from above:
(39) C[C@@H]1CN([C@H](C)CO)C(=O)c2cc(C#CCN(C)C)cnc2O[C@@H]1CN(C)C(=O)Nc1cccc(F)c1
(40) CN(C)Cc1cn(CC[C@H]2CC[C@H](NC(=O)Nc3ccc4c(c3)OCO4)[C@H](CO)O2)nn1

screen / no.	39	40
Env fusion inh	6[16.7 µM]	-19[16.7 µM]
UUG fidelity	9	-6

# The list continues:
(41) C[C@H]1CN([C@@H](C)CO)C(=O)c2cccc(NC(=O)Nc3ccc(F)cc3)c2O[C@H]1CN(C)C(=O)Nc1ccc(F)cc1
(42) CN1C(=O)c2cc(NC(=O)C3CCCC3)ccc2OC[C@H]2O[C@H](CC(=O)NCC3CC3)CC[C@@H]21
(43) CNC[C@H]1Oc2ccc(NC(=O)c3ccncc3)cc2CC(=O)N([C@H](C)CO)C[C@H]1C
(44) C[C@@H]1CN([C@@H](C)CO)C(=O)Cc2cc(NS(=O)(=O)c3cccs3)ccc2O[C@H]1CN(C)Cc1ccc(-c2ccccc2)cc1
(45) COc1ccccc1CNC(=O)C[C@H]1C[C@@H]2c3cc(NC(=O)Nc4ccccc4F)ccc3O[C@@H]2[C@H](CO)O1
(46) C[C@@H]1CN([C@@H](C)CO)C(=O)c2cc(NC(=O)CCN3CCOCC3)ccc2O[C@@H]1CN(C)CC1CCCCC1
(47) C[C@@H]1CN([C@@H](C)CO)C(=O)c2cc(C#CC3CCCC3)cnc2O[C@@H]1CN(C)Cc1ccncc1
(48) C[C@@H]1CN([C@H](C)CO)C(=O)c2cccc(NS(=O)(=O)c3cn(C)cn3)c2O[C@H]1CN(C)S(=O)(=O)c1ccccc1

screen / no.	41	42	43	44	45	46	47	48
Env fusion inh	4[16.7 µM]	-11[16.7 µM]	-2[16.7 µM]	-1[16.7 µM]	6[16.7 µM]	6[16.7 µM]	-9[16.7 µM]	-15[16.7 µM]
UUG fidelity	9	16	-11	-7	5	12	-11	-13

# Compounds above that contain bromine:
(2) C[C@@H]1CN([C@@H](C)CO)C(=O)c2cc(Br)cnc2O[C@H]1CN(C)C(=O)c1ccc(F)cc1
(5) C[C@H](CO)N1C[C@H](C)[C@H](CN(C)C(=O)C2CC2)Oc2ncc(Br)cc2C1=O

screen / no.	2	5
Env fusion inh	-19[16.7 µM]	-6[16.7 µM]
UUG fidelity	13	-8

# (next part)
(49) CC(C)NC(=O)N(C)C[C@@H]1Oc2ccc(NC(=O)Nc3ccc(C(F)(F)F)cc3)cc2CC(=O)N([C@H](C)CO)C[C@H]1C
(50) C[C@@H]1CN([C@H](C)CO)C(=O)c2cc(NS(=O)(=O)c3cccs3)ccc2O[C@@H]1CN(C)CC1CCCCC1
(51) C[C@@H]1CN([C@@H](C)CO)C(=O)Cc2cc(NC(=O)Cn3cnnn3)ccc2O[C@H]1CN(C)CC1CC1
(52) C[C@@H]1CCCCO[C@@H](CN(C)C(=O)CCCN(C)C)[C@H](C)CN([C@H](C)CO)C(=O)c2cc(N(C)C)ccc2O1
(53) C[C@@H]1CN([C@@H](C)CO)C(=O)c2cc(-c3ccc(C#N)cc3)cnc2O[C@H]1CN(C)Cc1cncnc1
(54) CCCNC(=O)N[C@@H]1CC[C@@H](CC(=O)NC2CCC2)O[C@@H]1CO
(55) C[C@H]1CN([C@@H](C)CO)S(=O)(=O)c2ccc(-c3cccc(C(=O)N(C)C)c3)cc2O[C@@H]1CN(C)C(=O)Cc1ccccn1
(56) CC(C)CC#Cc1cnc2c(c1)C(=O)N([C@H](C)CO)C[C@@H](C)[C@H](CN(C)C(=O)c1ccccc1)O2

screen / no.	49	50	51	52	53	54	55	56
Env fusion inh	-4[16.7 µM]	15[16.7 µM]	-7[16.7 µM]	16[16.7 µM]	-4[16.7 µM]	3[16.7 µM]	-5[16.7 µM]	12[16.7 µM]
UUG fidelity	0	-2	-3	29	-6	-8	-5	8

(57) C[C@@H]1CN([C@@H](C)CO)C(=O)c2cc(NC(=O)Cc3cn(C)c4ccccc34)ccc2O[C@@H]1CN(C)C(=O)Nc1ccccc1
(58) Cc1cccc(CN(C)C[C@@H]2Oc3ncc(-c4ccccc4)cc3C(=O)N([C@H](C)CO)C[C@@H]2C)c1
(59) C[C@H](CO)N1C[C@H](C)[C@@H](CN(C)C(=O)CCC(F)(F)F)OCCCC[C@H](C)Oc2ccc(NC(=O)C3CCCCC3)cc2C1=O
(60) C[C@H](CO)N1C[C@H](C)[C@H](CN(C)C(=O)Cc2ccncc2)Oc2ncc(C3=CCCC3)cc2C1=O
(61) C[C@H]1CN([C@@H](C)CO)C(=O)c2cc(C#CC(C)(C)O)cnc2O[C@@H]1CN(C)Cc1ccccn1
(62) C[C@@H]1CCCCO[C@@H](CN(C)Cc2ccccc2)[C@@H](C)CN([C@@H](C)CO)C(=O)c2cc(NC(=O)CCCN(C)C)ccc2O1
(63) C[C@H]1CCCCO[C@H](CN(C)C)[C@@H](C)CN([C@@H](C)CO)C(=O)c2cc(NC(=O)Nc3ccc(C(F)(F)F)cc3)ccc2O1
(64) CO[C@@H]1CN(C)C(=O)c2ccc(NC(=O)C3CC3)cc2OC[C@H](C)N(C(=O)c2cnccn2)C[C@H]1C

screen / no.	57	58	59	60	61	62	63	64
Env fusion inh	-39[16.7 µM]	1[16.7 µM]	-45[16.7 µM]	-15[16.7 µM]	17[16.7 µM]	-7[16.7 µM]	4[16.7 µM]	5[16.7 µM]
UUG fidelity	-1	-11	37	-6	-17	5	21	0

(65) COc1ccc(S(=O)(=O)Nc2ccc3c(c2)CC(=O)N([C@@H](C)CO)C[C@@H](C)[C@H](CN(C)S(=O)(=O)c2ccccc2)O3)cc1
(66) C[C@@H]1CCCCO[C@H](CN(C)Cc2ccc3c(c2)OCO3)[C@@H](C)CN([C@H](C)CO)C(=O)c2cc(NC(=O)c3ccncc3)ccc2O1
(67) COc1ccc(S(=O)(=O)Nc2ccc3c(c2)C(=O)N([C@H](C)CO)C[C@@H](C)[C@H](CN(C)C(=O)NC2CCCCC2)OCCCC[C@@H](C)O3)cc1
(68) C[C@H](CO)N1C[C@H](C)[C@@H](CN(C)Cc2ccccc2F)Oc2ncc(-c3ccccc3F)cc2C1=O

screen / no.	65	66	67	68
Env fusion inh	16[16.7 µM]	-18[16.7 µM]	-41[16.7 µM]	-66[16.7 µM]
UUG fidelity	-2	-2	-4	9

# The list is partial (hit frequency here may not be typical).
